GALR2 agonist: agonists of human galanin receptor 2 (GALR2) | O43603 | GALR2-expressing cells, agonist activation read-out | activation, %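 (tested at 5 µM)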 | 0.48% of 140,000 active;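 active = above mean plus 3 SD of all compounds, about 5% in these data, not always enough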;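 note: 0% = vehicle buffer wells and 100% = reference agonist at full effect; tested in CHO reporter cells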
Target sequence (O43603 whole entry, looked up): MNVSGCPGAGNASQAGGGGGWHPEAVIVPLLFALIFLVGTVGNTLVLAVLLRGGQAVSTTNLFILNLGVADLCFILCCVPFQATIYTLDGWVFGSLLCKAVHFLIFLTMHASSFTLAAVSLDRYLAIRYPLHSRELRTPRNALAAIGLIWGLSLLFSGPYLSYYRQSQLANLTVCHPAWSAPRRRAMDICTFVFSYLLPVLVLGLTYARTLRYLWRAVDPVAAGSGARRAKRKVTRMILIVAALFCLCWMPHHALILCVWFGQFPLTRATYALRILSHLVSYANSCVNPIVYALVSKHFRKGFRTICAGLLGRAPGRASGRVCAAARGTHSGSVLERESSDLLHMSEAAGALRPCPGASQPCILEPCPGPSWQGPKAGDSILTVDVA
INS promoter inh: TRM-6 insulin promoter activity inhibition; TRM-6 cells (human fetal islet line), insulin promoter-eGFP reporter, imaging; reporter expression induced with tamoxifen; inhibition, % at 2 µM; 0.9% of 130,000 active;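 active = inhibition above the mean plus 3 SD, with well images judged a real hit on visual review, cut at about 60% in these data, passing the limit was not always enough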
PKD1 inh: PKD1 (human) kinase inhibition. Q15139. PKD1 kinase fluorescence polarization assay. inhibition, %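 (about 10 µM by stock and volumes)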. 0.056% of 200,000 active. AID 797;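 active = inhibition of 50% or more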;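 note: controls were vehicle for no effect and a reference inhibitor for full effect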
HSV augment: HSV replication enhancement; HSV replication augmentation in cells, fold increase; maximum fold increase; AID 1956; 0.005% of 220,000 active;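 active = peak rise of 1.5-fold or more in the series; tested in PC3 cells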;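 note: first round at 10 µM; read as green reporter fluorescence; hits show the peak of a series up to 25 µM; 1 = signal of infected wells without compound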
RGS16-Gao HTS: modulates binding between human RGS16 and Galphao | O15492+P09471 | bead-based flow cytometry RGS16-Galphao binding, fluorescence; actives lie on both sides | 0.38% of 220,000 active | AID 1441 | binding response (% of control), % at 10 µM;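 active = below 25% or above 175%, edge rows of some plates excepted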;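 note: Galphao activated by GDP with aluminum fluoride before binding; 100% = wells without compound and 0% = beads without RGS; some results beyond the cut were filed as inactive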
Target sequence (O15492 whole entry, looked up): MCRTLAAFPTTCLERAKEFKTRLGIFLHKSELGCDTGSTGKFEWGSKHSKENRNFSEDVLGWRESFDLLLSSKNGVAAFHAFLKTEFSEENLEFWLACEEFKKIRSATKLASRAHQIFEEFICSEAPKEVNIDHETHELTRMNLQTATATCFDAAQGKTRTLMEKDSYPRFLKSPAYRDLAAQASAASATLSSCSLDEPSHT
Target sequence (P09471 whole entry, looked up): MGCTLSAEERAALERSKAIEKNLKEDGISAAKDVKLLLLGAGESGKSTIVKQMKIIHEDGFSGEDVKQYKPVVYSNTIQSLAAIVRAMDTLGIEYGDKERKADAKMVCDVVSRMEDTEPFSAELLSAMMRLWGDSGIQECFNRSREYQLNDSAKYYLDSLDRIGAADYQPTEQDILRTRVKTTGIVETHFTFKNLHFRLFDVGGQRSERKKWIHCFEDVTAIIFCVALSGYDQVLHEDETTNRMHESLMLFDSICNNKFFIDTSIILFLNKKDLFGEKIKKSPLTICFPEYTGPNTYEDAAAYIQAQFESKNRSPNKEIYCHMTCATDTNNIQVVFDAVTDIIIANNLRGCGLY
INS promoter inh cell count: further read-out of INS promoter inh, marked with its call; normalized cell count, %; measured here: cell count, toxicity; reference of the scale not given here;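 cells exposed to compound for 48 h; stained nuclei by imaging scaled within each plate; lower means fewer cells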
HSV augment primary fold: also measured in HSV augment; calls as there; fold increase; compound at 10 µM; measured here: primary screen fold increase 10 uM; tested in PC3 cells;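 GFP signal in the first replicate; 1 = infected wells without compound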
The depositor's hits bear a star. Compounds as they come (roughly 1.3% active in at least one column).

Results for Nc1ccccc1Sc1nc2ccccc2[nH]1 ?
PKD1 inh: 5.2; HSV augment: inactive; RGS16-Gao HTS: 80.3; HSV augment primary fold: 0.98

What do the screens show for `NC(=O)c1ccc(NC(=O)CCC(=O)N2CCN(S(=O)(=O)c3ccc(Cl)cc3)CC2)cc1`?
HSV augment: inactive; RGS16-Gao HTS: 99.9; HSV augment primary fold: 0.99

How did O=Cc1ccccc1-n1cccn1 do in these assays?
PKD1 inh: -7.9; HSV augment: inactive; RGS16-Gao HTS: 33.5; HSV augment primary fold: 1.01

What do the screens show for `O=C(CCC(=O)c1cccs1)Nc1ccccc1F`?
GALR2 agonist: -0.6; INS promoter inh: -38.7; PKD1 inh: -5.1; HSV augment: inactive; RGS16-Gao HTS: 112.0; INS promoter inh cell count: 80.5; HSV augment primary fold: 0.93

How did Cc1ccc(C(=O)Nc2nc3ccc(S(C)(=O)=O)cc3s2)o1 do in these assays?
GALR2 agonist: -3.8; INS promoter inh: 50.0; PKD1 inh: -8.8; HSV augment: inactive; RGS16-Gao HTS: 105.6; INS promoter inh cell count: 107.2; HSV augment primary fold: 0.76

Results for CN(C[C@H](Cc1ccccc1)N(C[C@H](Cc1ccccc1)N(CCC(C)(C)C)N=O)N=O)N=O ?
PKD1 inh: -1.4; HSV augment: inactive; RGS16-Gao HTS: 96.8; HSV augment primary fold: 0.73

What do the screens show for `Cc1occc1C(=O)NNC(=O)Nc1ccc(F)cc1F`?
GALR2 agonist: -0.4; PKD1 inh: -3.9; HSV augment: inactive; RGS16-Gao HTS: 97.9; HSV augment primary fold: 0.99

What do the screens show for `C=CCn1c(CCNC(=O)c2ccccc2F)nnc1SCC(=O)Nc1nc(C)cs1`?
GALR2 agonist: -0.8; INS promoter inh: -145.0; PKD1 inh: -2.4; HSV augment: inactive; RGS16-Gao HTS: 118.8; INS promoter inh cell count: 111.9; HSV augment primary fold: 0.95

What do the screens show for `Cc1ccc(-c2ccnc(=S)[nH]2)cc1`?
GALR2 agonist: -1.2; PKD1 inh: -9.4; HSV augment: inactive; RGS16-Gao HTS: 99.7; HSV augment primary fold: 0.94

What do the screens show for `CN(Cc1ccccc1)c1ccc(S(=O)(=O)N2CCC(C(=O)O)CC2)cc1[N+](=O)[O-]`?
PKD1 inh: 1.8; HSV augment: inactive; RGS16-Gao HTS: 94.7; HSV augment primary fold: 1.02

What do the screens show for `O=S(=O)(O)c1nc2ccccc2n1Cc1ccccc1`?
GALR2 agonist: -1.6; INS promoter inh: 46.1; PKD1 inh: 9.2; RGS16-Gao HTS: 98.0; INS promoter inh cell count: 60.0

How did CCCCC(=O)Nc1ccc(C(=O)NNC(=O)c2ccc(C)c(Br)c2)cc1 do in these assays?
GALR2 agonist: -0.1; PKD1 inh: -2.5; HSV augment: inactive; RGS16-Gao HTS: 77.5; HSV augment primary fold: 0.96

Results for Cc1cccc(OC(C)C(=O)N/N=C\c2ccncc2)c1 (centres undefined) ?
PKD1 inh: 1.4; HSV augment: inactive; RGS16-Gao HTS: 103.9; HSV augment primary fold: 0.96

Results for CN(C)S(=O)(=O)c1cccc(C(=O)NCC2(N3CCOCC3)CCCCC2)c1 ?
HSV augment: inactive; RGS16-Gao HTS: 103.2; HSV augment primary fold: 1.05

Results for C=CCOc1cccc(C2/C(=C(/O)c3ccc(C)cc3)C(=O)C(=O)N2CCN2CCOCC2)c1 (centres undefined) ?
GALR2 agonist: -2.1; INS promoter inh: -6.7; PKD1 inh: -3.6; HSV augment: inactive; RGS16-Gao HTS: 102.7; INS promoter inh cell count: 107.1; HSV augment primary fold: 0.7

How did CCC(=O)N1CCc2cc(S(=O)(=O)NCCN3CCCCC3CC)ccc21 (centres undefined) do in these assays?
GALR2 agonist: -3.4; INS promoter inh: -6.9; PKD1 inh: -9.2; HSV augment: inactive; RGS16-Gao HTS: 126.4; INS promoter inh cell count: 60.0; HSV augment primary fold: 1.01

Results for COc1ccc(CNCCNC(=O)c2cccs2)cc1OC ?
INS promoter inh: -18.2; PKD1 inh: -2.3; HSV augment: inactive; RGS16-Gao HTS: 105.0; INS promoter inh cell count: 190.3; HSV augment primary fold: 0.99

Results for Cc1cc(C(=O)COC(=O)C2=NNC(=O)CC2)c(C)n1CCc1ccccc1 ?
PKD1 inh: 1.4; HSV augment: inactive; RGS16-Gao HTS: 109.2; HSV augment primary fold: 0.91

Results for COCCn1nnnc1CN1C2CCCC1CC(NC(C)=O)C2 (centres undefined) ?
GALR2 agonist: -2.1; INS promoter inh: inactive; PKD1 inh: -3.0; HSV augment: inactive; RGS16-Gao HTS: 99.8; INS promoter inh cell count: 50.8; HSV augment primary fold: 0.85

What do the screens show for `C=CCOC(=O)C1=C[C@@H](c2ccc3c(c2)OCO3)C[C@@H](OCc2ccc(CO)cc2)O1`?
PKD1 inh: 2.1; HSV augment: inactive; RGS16-Gao HTS: 96.9; HSV augment primary fold: 0.87

Molecules above with fluorine:
What do the screens show for `O=C(CCC(=O)c1cccs1)Nc1ccccc1F`?
GALR2 agonist: -0.6; INS promoter inh: -38.7; PKD1 inh: -5.1; HSV augment: inactive; RGS16-Gao HTS: 112.0; INS promoter inh cell count: 80.5; HSV augment primary fold: 0.93

What do the screens show for `Cc1occc1C(=O)NNC(=O)Nc1ccc(F)cc1F`?
GALR2 agonist: -0.4; PKD1 inh: -3.9; HSV augment: inactive; RGS16-Gao HTS: 97.9; HSV augment primary fold: 0.99

What do the screens show for `C=CCn1c(CCNC(=O)c2ccccc2F)nnc1SCC(=O)Nc1nc(C)cs1`?
GALR2 agonist: -0.8; INS promoter inh: -145.0; PKD1 inh: -2.4; HSV augment: inactive; RGS16-Gao HTS: 118.8; INS promoter inh cell count: 111.9; HSV augment primary fold: 0.95

Going on with the list.
Results for Cn1ncc2c(O/N=C(\N)c3ccc(C(C)(C)C)cc3)ncnc21 ?
HSV augment: inactive; RGS16-Gao HTS: 99.9; HSV augment primary fold: 0.64

How did CCCOC(=O)C1=C(C)NC(=O)NC1c1ccc(Br)s1 (centres undefined) do in these assays?
INS promoter inh: 7.7; PKD1 inh: -2.9; HSV augment: inactive; RGS16-Gao HTS: 101.0; INS promoter inh cell count: 47.2; HSV augment primary fold: 0.93

What do the screens show for `CN1CCN(C(=O)N2c3ccccc3C=Cc3ccccc32)CC1`?
GALR2 agonist: -0.7; PKD1 inh: 2.1; HSV augment: inactive; RGS16-Gao HTS: 106.1; HSV augment primary fold: 1.09

What do the screens show for `O=c1oc2ccccc2n1CSC1=NCCS1`?
GALR2 agonist: -2.2; INS promoter inh: 50.0; PKD1 inh: 1.5; HSV augment: inactive; RGS16-Gao HTS: 98.7; INS promoter inh cell count: 133.8; HSV augment primary fold: 0.89

Results for O=C(CSc1nnc(-c2ccccc2)n1Cc1ccco1)Nc1ccc2c(c1)OCCO2 ?
GALR2 agonist: -1.1; PKD1 inh: 5.1; HSV augment: inactive; RGS16-Gao HTS: 83.2; HSV augment primary fold: 1

How did COc1ccc(N2CCN(C(c3ccccc3)c3sc4nc(C)nn4c3O)CC2)cc1 (centres undefined) do in these assays?
HSV augment: inactive; RGS16-Gao HTS: 96.4; HSV augment primary fold: 0.72

What do the screens show for `Cc1cnc(C(=O)N2CCCC(C(=O)c3cccc(OC(C)C)c3)C2)cn1` (centres undefined)?
PKD1 inh: -6.7; HSV augment: inactive; RGS16-Gao HTS: 110.0; HSV augment primary fold: 1.01

How did CCn1cc(C(=O)O)c(=O)c2cnc(N3CCN(C(=S)Nc4ccc(F)cc4)CC3)nc21 do in these assays?
HSV augment: inactive; RGS16-Gao HTS: 97.8; HSV augment primary fold: 0.98

Results for Cc1cc(=O)oc2cc(OCCSCCN3CCOCC3)ccc12 ?
GALR2 agonist: -3.7; PKD1 inh: 1.6; HSV augment: inactive; RGS16-Gao HTS: 100.5; HSV augment primary fold: 0.77

What do the screens show for `COC(=O)[C@H]1C[C@@H]1[C@H](NC(=O)c1ccccc1)c1ccccc1`?
GALR2 agonist: -1.8; INS promoter inh: -61.9; PKD1 inh: -10.7; HSV augment: inactive; RGS16-Gao HTS: 78.2; INS promoter inh cell count: 58.2; HSV augment primary fold: 0.96

How did CCn1c(N)c(C(=O)N2CCOCC2)sc1=S do in these assays?
GALR2 agonist: -1.9; PKD1 inh: -1.1; HSV augment: inactive; RGS16-Gao HTS: 102.8; HSV augment primary fold: 0.973

What do the screens show for `Cc1cc(S(=O)(=O)N(Cc2ccc3c(c2)OCO3)CC2CCCO2)ccc1-n1cnnn1` (centres undefined)?
GALR2 agonist: -2.1; INS promoter inh: -10.8; PKD1 inh: -4.3; HSV augment: inactive; RGS16-Gao HTS: 100.0; INS promoter inh cell count: 131.9; HSV augment primary fold: 0.9

Results for O=C(Nc1nccs1)c1sc2cc(Cl)ccc2c1Cl ?
GALR2 agonist: -1.6; INS promoter inh: 42.9; PKD1 inh: -4.0; HSV augment: inactive; RGS16-Gao HTS: 99.4; INS promoter inh cell count: 159.2; HSV augment primary fold: 0.76

How did Cn1c(=NC(=O)C2CC2)sc2cccc(F)c21 do in these assays?
GALR2 agonist: -3.2; PKD1 inh: -8.2; HSV augment: inactive; RGS16-Gao HTS: 96.5; HSV augment primary fold: 0.97

How did Cc1cccc(-n2ccnc2SCC(=O)Nc2ccc3c(c2)OCCO3)c1 do in these assays?
GALR2 agonist: -1.1; INS promoter inh: -31.6; PKD1 inh: -5.7; HSV augment: inactive; RGS16-Gao HTS: 101.0; INS promoter inh cell count: 155.3; HSV augment primary fold: 0.89

How did O=C(N/N=C/C=C\c1ccccc1[N+](=O)[O-])c1ccccn1 do in these assays?
GALR2 agonist: -1.9; PKD1 inh: -18.0; HSV augment: inactive; RGS16-Gao HTS: 85.7; HSV augment primary fold: 1.06

What do the screens show for `Cc1cc(C)n(-c2nnc(C)n2/N=C/c2ccccc2F)n1`?
GALR2 agonist: -1.6; INS promoter inh: -14.3; PKD1 inh: -1.1; HSV augment: inactive; RGS16-Gao HTS: 102.0; INS promoter inh cell count: 135.6; HSV augment primary fold: 1.09

Results for O=C(c1ccc(F)cc1)c1cc2ccccc2o1 ?
GALR2 agonist: -0.5; PKD1 inh: -2.0; HSV augment: inactive; RGS16-Gao HTS: 101.5; HSV augment primary fold: 1.07

Results for CCc1cc2c(NCC3CCCO3)ncnc2s1 (centres undefined) ?
GALR2 agonist: -2.5; INS promoter inh: 74.2*; PKD1 inh: 3.9; HSV augment: inactive; RGS16-Gao HTS: 97.8; INS promoter inh cell count: 107.5*; HSV augment primary fold: 0.93

What do the screens show for `COc1ccccc1C1CC(c2ccc(F)cc2)Nc2ncnn21` (centres undefined)?
GALR2 agonist: -2.1; INS promoter inh: -36.4; PKD1 inh: -22.7; HSV augment: inactive; RGS16-Gao HTS: 112.2; INS promoter inh cell count: 63.4; HSV augment primary fold: 0.89

How did Cn1c(=O)cc(SCC(=O)NCc2ccc(F)cc2)c2ccccc21 do in these assays?
PKD1 inh: -4.7; HSV augment: inactive; RGS16-Gao HTS: 101.2; HSV augment primary fold: 0.89

What do the screens show for `COC(=O)c1cccc(NC(=O)Nc2ccc(Cl)c(Cl)c2)c1`?
GALR2 agonist: -1.1; INS promoter inh: 0.0; PKD1 inh: -11.7; HSV augment: inactive; RGS16-Gao HTS: 95.9; INS promoter inh cell count: 140.7; HSV augment primary fold: 0.96

Results for CCN(CC)C(=O)C1CCCN(Cc2ccc(F)c(F)c2)C1 (centres undefined) ?
GALR2 agonist: -0.3; PKD1 inh: 5.8; HSV augment: inactive; RGS16-Gao HTS: 100.8; HSV augment primary fold: 0.98

How did O=C1CCC/C(=N\NC(=O)NC2CCCCC2)C1 do in these assays?
PKD1 inh: 2.7; HSV augment: inactive; RGS16-Gao HTS: 99.4; HSV augment primary fold: 1.09

Results for O=C(N/C=C\c1ccccc1)NCc1ccc(Cl)cc1Cl ?
GALR2 agonist: -2.3; INS promoter inh: 17.2; PKD1 inh: -2.0; HSV augment: inactive; RGS16-Gao HTS: 100.2; INS promoter inh cell count: 106.8; HSV augment primary fold: 1.04

Results for C=CCSc1nc2ccccc2c(=O)[nH]1 ?
GALR2 agonist: -3.9; PKD1 inh: -12.8; HSV augment: inactive; RGS16-Gao HTS: 103.3; HSV augment primary fold: 0.83

How did COCCOC(=O)c1c(C)oc2ccc(OS(C)(=O)=O)cc12 do in these assays?
INS promoter inh: -8.7; PKD1 inh: -0.2; HSV augment: inactive; RGS16-Gao HTS: 102.1; INS promoter inh cell count: 194.2; HSV augment primary fold: 0.86

How did O=C(Nc1ccc(F)cc1)N1CCN(CCc2ccccc2)CC1 do in these assays?
PKD1 inh: 0.8; HSV augment: inactive; RGS16-Gao HTS: 99.0; HSV augment primary fold: 0.84

How did CC(Nc1nc(N2CCN(S(C)(=O)=O)CC2)nc2ccccc12)c1ccccc1 (centres undefined) do in these assays?
GALR2 agonist: -0.4; INS promoter inh: 35.7; PKD1 inh: 0.2; HSV augment: inactive; RGS16-Gao HTS: 93.6; INS promoter inh cell count: 142.8; HSV augment primary fold: 0.85
